Screening data from PubChem.
Measles inh: inhibitors of measles virus growth in infected cells; infected Vero cells, GFP fluorescence, 64 h; active compounds read low; z-score (test concentration not listed); actives 0.1% (n = 33,000); AID 745;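 active means z-score under -3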;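 further: score is relative to mean and SD of the compound wells of a plate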
* = called active by the depositor. An excerpt; rates above refer to the full screens.

Measles inh	SMILES
0.45	CC1(C)CC(=O)C2=C(C1)Nc1nc(SCc3ccc(Cl)cc3)[nH]c(=O)c1C2c1ccccc1 (configuration not stated)
1	O=C(NCCCN1CCCC1)C1CCCN(c2nc3ccccc3o2)C1 (configuration not stated)
-0.68	Cc1nc(C(N)=O)c(N)n1CCO
-0.32	COc1ccc(S(=O)(=O)Nc2ccc(Oc3ccccc3)cc2)cc1OC
-0.12	CCOc1ccc(NC(=O)c2cc3nc(-c4ccc(Cl)cc4)cc(C(F)(F)F)n3n2)cc1
-1.1	Cc1ccc2c(c1)C(O)(CC(=O)c1ccc(C(C)(C)C)cc1)C(=O)N2 (configuration not stated)
-0.85	O=C(NC1CC1)c1ccc(C(F)(F)F)cc1
-1	COc1ccccc1CNC(=O)C1C2C=CC3(CN(Cc4ccccc4Cl)C(=O)C13)O2 (configuration not stated)
-0.38	Cc1ccc(C2C=C(c3ccc(Cl)cc3)Nc3nnnn32)c(C)c1 (configuration not stated)
0.44	C=CCN1C(=O)C(CC(=O)Nc2ccc(Br)cc2)SC1=Nc1ccc(O)cc1 (configuration not stated)
0.52	COc1ccc(N2CCN(C(=O)c3ccc4nc5cc(Cl)ccc5c(=O)n4c3)CC2)cc1
-0.35	COc1ccccc1NC(=O)CN1C(=O)c2ccccc2C1=O
-0.4	COc1cccc(-c2nn(C)c3sc(C(=O)Nc4cccc(C#N)c4)cc23)c1
-0.07	CCC(C)Nc1nc(SCC(=O)OC)nc(N(C)C)n1 (configuration not stated)
0.09	Cc1ccc(NC(=O)CCN2C(=O)c3cccc([N+](=O)[O-])c3C2=O)c(C)c1
-0.14	CN1C(=O)c2ccccc2C(C(=O)Nc2ccccc2C(F)(F)F)C1c1cccs1 (configuration not stated)
-0.07	O=C(NCc1ccco1)c1ccc(N2CC3CC(C2)c2cccc(=O)n2C3)c(NC(=O)c2ccncc2)c1 (configuration not stated)
-0.3	O=[N+]([O-])c1cc(-n2cnnn2)ccc1Cl
-0.11	Cc1c(Cl)cccc1Nc1ccc(C(=O)O)cc1[N+](=O)[O-]
0.76	COc1ccc(C(=O)Nc2c[nH]c(=O)[nH]c2=O)cc1OC

Laid out differently: entries from further up
> CN1C(=O)c2ccccc2C(C(=O)Nc2ccccc2C(F)(F)F)C1c1cccs1 (configuration not stated)
  Measles inh = -0.14

> O=C(NCc1ccco1)c1ccc(N2CC3CC(C2)c2cccc(=O)n2C3)c(NC(=O)c2ccncc2)c1 (configuration not stated)
  Measles inh = -0.07

(listing goes on)
Measles inh	SMILES
1.3	COc1cc(NC(=O)c2cn(C)c(=O)c3c2c2ccccc2n3C)cc(OC)c1OC
-0.14	Cc1cc(C)nc(/N=C(\N)Nc2cc(C(F)(F)F)ccc2Cl)n1
2.8	Cc1cc(NCc2ccccc2)c2ccccc2n1
0.17	CCC(=O)N1c2ccc(S(=O)(=O)Nc3cccc(OC)c3)cc2CC1C (configuration not stated)
-0.88	COc1ccc2c(c1)sc1nc(-c3cc4c(ccc5ccccc54)oc3=O)cn12
0.4	Cc1cccc(OCCCC(=O)Nc2nnc(C)s2)c1
0.62	CCOC(=O)Cc1csc(NC(=O)CCc2ccccc2)n1
-2.6	O=C(NCCC1=CCCCC1)c1cc(=O)[nH]c2ccc(S(=O)(=O)N3CCCCCC3)cc12
-0.16	COc1ccc(C2C(C(=O)Nc3ccc4c(c3)OCO4)c3ccccc3C(=O)N2Cc2ccc(F)cc2)cc1 (configuration not stated)
0.54	Cc1ccc(NC(=O)CCNS(=O)(=O)c2ccc(Br)s2)cc1
-0.49	COC(=O)c1ccc(NC(C(=O)OC)C(C)C)c([N+](=O)[O-])c1 (configuration not stated)
1.4	Cc1ccc2nc(-c3ccc(NC(=O)c4ccc(S(=O)(=O)N5CC(C)CC(C)C5)cc4)cc3)sc2c1 (configuration not stated)
0.2	COc1cc(OC)cc(C(=O)Nc2c3c(nn2-c2ccccc2C)CSC3)c1
1	Cc1cc(Br)ccc1NC(=O)C1CCN(S(=O)(=O)c2cccc3nonc23)CC1
-0.74	O=C(NCCC1=CCCCC1)c1ccc2c(c1)C(=O)N(c1ccccn1)C2=O
0.28	O=C1CC(N2CCN(C34CC5CC(CC(C5)C3)C4)CC2)C(=O)N1c1cccc(Cl)c1 (configuration not stated)
0.87	Cc1ccc2nc(SCC(=O)Nc3cccc([N+](=O)[O-])c3)[nH]c2c1
-1.3	Clc1ccc2nc(Cl)cc(-c3ccccc3)c2c1
-0.48	Cc1sc2ncn(CC(=O)NCCN3CCOCC3)c(=O)c2c1S(=O)(=O)N1CC(C)CC(C)C1 (configuration not stated)
1.9	Cc1ccc(CSc2ncccc2C(=O)O)cc1

(cont.)
Measles inh	SMILES
0.03	CC1=CC(C)(C)NC(=S)N1c1ccccc1O
0.8	COC(=O)c1ccc(CS(=O)(=O)c2ccccc2)o1
-1.2	CCOC(=O)C1=C(SCC(=O)Nc2ccccc2)NC(=O)C(C#N)C12CCCCC2 (configuration not stated)
-0.59	C#CC(C)(C)OC(=O)CCC(=O)Nc1nccs1
-0.07	COc1cccc(-n2ccnc2SCC(=O)N2CCc3ccccc32)c1
-0.52	O=C1c2ccccc2C(=O)N1c1n[nH]c(=S)s1
-0.64	O=C(C1CCCN(S(=O)(=O)c2cccs2)C1)N1CCc2ccccc21 (configuration not stated)
0.25	CC(C(=O)NCc1ccc(Cl)cc1)C1Sc2ccccc2N(Cc2ccccc2F)C1=O (configuration not stated)
-0.52	O=C(NCCc1ccccc1)c1ccc(CSCc2ccc(Cl)cc2)o1
-1.1	O=C(Nc1ccc(-c2nc3cc(Cl)ccc3o2)cc1)c1cc([N+](=O)[O-])ccc1Br
1.8	CCOc1cc(-c2ccc(OC)cc2)cc(=O)c2c(C)oc(C)c12
-0.28	Cc1ccc(S(=O)(=O)Nc2ccccc2CNc2ccccc2Br)cc1
-0.75	COc1ccc(C2=NC(C(F)(F)F)(C(F)(F)F)N=C(N3CCCCC3)O2)cc1
2.5	CCOc1ccc(/C(O)=C2\C(=O)C(=O)N(Cc3cccnc3)C2c2ccccc2F)c(C)c1 (configuration not stated)
-0.08	CCOC(=O)c1nn2c(C(F)(F)F)cc(-c3ccc(C)cc3)nc2c1Cl
0.47	CCOc1ccc(S(=O)(=O)Nc2cc3c4c(oc3c3ccccc23)CCCC4)cc1
-1.2	Cc1ccc(S(=O)(=O)N(C)CCCC(=O)Nc2cccc(C)c2)cc1
-0.15	COCCCNC(=O)CCCn1c(=S)[nH]c2cc3c(cc2c1=O)OCO3
-0.89	O=C(CN(c1cccc([N+](=O)[O-])c1)S(=O)(=O)c1ccccc1)Nc1cccc2ccccc12
-1.2	COc1ccc(-n2sc3c(c2=S)-c2cc(C)cc(C)c2NC3(C)C)cc1

Following part:
Measles inh	SMILES
-1.5	O=C(Nc1nnc(C2CC2)o1)c1ccc(S(=O)(=O)N2CCCCCC2)cc1
0.01	CCOC(=O)c1c(-c2ccccc2)oc2cc(Br)c(OC(=O)c3ccco3)cc12
0.19	O=c1oc2c(-c3ccc(F)cc3)cc(O)cc2s1
1.7	CCc1ccc(C2=NC(C(C)C)NC(c3cc(Br)ccc3O)C2)cc1 (configuration not stated)
0.24	COc1ccc(NC(C)c2ccccc2)cc1 (configuration not stated)
0.25	c1ccc(Cc2nc(NCc3ccccn3)c3c4c(sc3n2)CCCC4)cc1
0.12	Cc1ccc(NC(=O)c2cccc(N)c2)cc1
0.3	COC(=O)c1c(N2C(=N)SCC2=O)sc2c1CCCC2
-0.46	COc1ccccc1N1C(=O)c2cccc(N)c2C1=O
0.74	Cn1cnnc1SCC(=O)N1N=C(c2cccs2)CC1c1ccc(F)cc1 (configuration not stated)
0.56	Nc1c(C(=O)NCc2ccco2)sc(=S)n1-c1ccccc1
0.48	O=C(c1ccc(Oc2ccc(C(F)(F)F)cc2[N+](=O)[O-])cc1)N1CCc2ccccc2C1
0.44	CCC(=O)N1CCc2cc(S(=O)(=O)CCC(=O)Nc3ccc(C)cc3C)ccc21
-0.5	O=[N+]([O-])c1cc(S(=O)(=O)N2CCCCCC2)ccc1F
0.25	O=c1c2cccnc2[nH]c(=S)n1CCN1CCN(c2ccccc2)CC1
-1.1	CC(C(O)C12CC3CC(CC(C3)C1)C2)N1CCCCC1 (configuration not stated)
-1.1	O=[N+]([O-])c1cc(CN2CCCC2)c2cccnc2c1O
0.41	Cc1cc(Oc2ncnc(N)c2[N+](=O)[O-])ccc1C(C)C
0.54	COc1ccc(C2CC(=O)C3=C(C2)Nc2ccccc2NC3c2ccc([N+](=O)[O-])cc2)cc1OC (configuration not stated)
-1	CC(Nc1cc(=O)n(C)c(=O)n1C)c1ccccc1 (configuration not stated)

More structures:
Measles inh	SMILES
-0.69	CC1CCCC(NC(=O)CCCn2c(=S)[nH]c3ccc(Br)cc3c2=O)C1C (configuration not stated)
-0.22	COc1ccccc1NC(=O)c1c(NCc2ccncc2)sc2c1CCC(C)C2 (configuration not stated)
0.34	O=C1C(=O)N(CO)C(c2ccccc2)/C1=C(\O)c1ccccc1 (configuration not stated)
-0.3	CCCCN(CC)Cc1c(O)ccc2c3c(c(=O)oc12)CCC3
0.42	CCN1CC23C=CC(O2)C(C(=O)O)C3C1=O (configuration not stated)
0.65	CCOc1ccc(-c2c(C#N)c(N)nc(SCC#N)c2C#N)cc1
2.1	O=C(C1CCC(CNS(=O)(=O)c2cccs2)CC1)N1CCCCC1 (configuration not stated)
0.29	CC1CC(=O)N(c2ccc(Nc3ccc(OCc4ccccc4)cc3)c([N+](=O)[O-])c2)C1=O (configuration not stated)
1.3	COc1ccc(-c2csc(N3CCCC3C(=O)OCc3ccccc3)n2)cc1 (configuration not stated)
-0.55	COc1cc2c(cc1OC)C(C(Cl)(Cl)Cl)OC2=O (configuration not stated)
-0.16	CCOC(=O)c1[nH]c2ccccc2c1NC(=O)c1ccc2c(c1)OCO2
0.16	CC1C(=O)OC2(c3ccc(Br)cc3)C(C)C(=O)OC12 (configuration not stated)
-1.3	COCCNC(=O)c1cc(-c2ccc(F)cc2)on1
-0.23	CC(C)Cn1c(CN2CC(C)CC(C)C2)nc2c1c(=O)n(C)c(=O)n2C (configuration not stated)
-0.04	CCOC(=O)c1ccc(Cn2c3ccc([N+](=O)[O-])cc3c3nc4cc(C)c(C)cc4nc32)o1
0.71	CCc1ccc(NS(=O)(=O)c2ccc3[nH]cc(C(=O)NCc4ccccc4)c(=O)c3c2)cc1
0.1	O=S(=O)(c1ccc(C2CCCCC2)cc1)N1CCN(c2cccc(Cl)c2)CC1
0.22	Cc1c(C=Cc2nc3ccccc3c(=O)n2-c2ccc([N+](=O)[O-])cc2)c2ccccc2n1C
-0.27	CCOc1ccccc1N1CCN(C(=O)c2cc(OC)cc(OC)c2)CC1
0.15	O=C(CN1C(=O)CSc2ccccc21)NCCN1CCOCC1

Continuation.
Measles inh	SMILES
1.6	COC(=O)c1ccc(C(=O)OC)c(NC(=O)NS(=O)(=O)c2ccc(C)cc2)c1
-1.8	COc1cc(C(=O)Nc2sc3c(c2C(N)=O)CCCC3)cc(OC)c1OC
-0.74	Cc1ccc(C2Nc3ccccc3C(=O)N2c2ccccc2)cc1 (configuration not stated)
0.17	CC(=O)N(C1=C(N2CCCCC2)C(=O)c2ccccc2C1=O)c1ccc(F)cc1
0.18	COc1ccc(CNC(=O)C2CC(=O)N(c3ccc(Cl)cc3)C2)cc1 (configuration not stated)
0.39	COC(=O)c1cc(-c2cccc(Br)c2)no1
-1.9	S=C(c1cn(Cc2ccc(Br)cc2)c2ccccc12)N1CCOCC1
2.9	COc1ccc(N=Cc2ccc(C#Cc3ccccc3)cc2)c([N+](=O)[O-])c1
-0.62	c1ccc(N2CCN(C3CCN(Cc4ccccn4)CC3)CC2)cc1
-0.59	CCOC(=O)C1=C(C)N=C2SCCC(=O)N2C1c1cccc(Oc2ccccc2)c1 (configuration not stated)
-0.34	O=C(CC1Sc2ccccc2NC1=O)Nc1ccc(Cl)c(C(F)(F)F)c1 (configuration not stated)
-0.72	Cc1ccc2cc(C3CC(c4ccco4)=NN3S(C)(=O)=O)c(Cl)nc2c1 (configuration not stated)
-0.41	CC(C)(C)C(=O)CSc1nc2ccccc2c(=O)n1CCc1ccc(S(N)(=O)=O)cc1
-1.8	CC1=C(C(=O)Nc2ccc(F)cc2)C(c2ccc(C)cc2)C2=C(CC(c3ccccc3)CC2=O)N1 (configuration not stated)
-0.16	COc1ccccc1NC(=O)CCCN1C(=O)c2cccc3cccc(c23)C1=O
-0.21	COc1ccc(C2CC(c3ccc(OC(F)F)cc3)n3nnnc3N2)cc1 (configuration not stated)
0.96	Cc1ccnc(NS(=O)(=O)c2ccc(NC(=O)c3ccc(Cl)cc3)cc2)n1
-0.27	CCOC(=O)C1=C(N)N(c2ccc(Cl)cc2)C2=C(C(=O)CCC2)C1c1ccc(CC)cc1 (configuration not stated)

Molecules shown so far containing a nitro group on carbon:
Measles inh	SMILES
0.09	Cc1ccc(NC(=O)CCN2C(=O)c3cccc([N+](=O)[O-])c3C2=O)c(C)c1
-0.3	O=[N+]([O-])c1cc(-n2cnnn2)ccc1Cl
-0.11	Cc1c(Cl)cccc1Nc1ccc(C(=O)O)cc1[N+](=O)[O-]
-0.49	COC(=O)c1ccc(NC(C(=O)OC)C(C)C)c([N+](=O)[O-])c1 (configuration not stated)
0.87	Cc1ccc2nc(SCC(=O)Nc3cccc([N+](=O)[O-])c3)[nH]c2c1
-1.1	O=C(Nc1ccc(-c2nc3cc(Cl)ccc3o2)cc1)c1cc([N+](=O)[O-])ccc1Br
-0.89	O=C(CN(c1cccc([N+](=O)[O-])c1)S(=O)(=O)c1ccccc1)Nc1cccc2ccccc12
0.48	O=C(c1ccc(Oc2ccc(C(F)(F)F)cc2[N+](=O)[O-])cc1)N1CCc2ccccc2C1
-0.5	O=[N+]([O-])c1cc(S(=O)(=O)N2CCCCCC2)ccc1F
-1.1	O=[N+]([O-])c1cc(CN2CCCC2)c2cccnc2c1O
0.41	Cc1cc(Oc2ncnc(N)c2[N+](=O)[O-])ccc1C(C)C
0.54	COc1ccc(C2CC(=O)C3=C(C2)Nc2ccccc2NC3c2ccc([N+](=O)[O-])cc2)cc1OC (configuration not stated)
0.29	CC1CC(=O)N(c2ccc(Nc3ccc(OCc4ccccc4)cc3)c([N+](=O)[O-])c2)C1=O (configuration not stated)
-0.04	CCOC(=O)c1ccc(Cn2c3ccc([N+](=O)[O-])cc3c3nc4cc(C)c(C)cc4nc32)o1
0.22	Cc1c(C=Cc2nc3ccccc3c(=O)n2-c2ccc([N+](=O)[O-])cc2)c2ccccc2n1C
2.9	COc1ccc(N=Cc2ccc(C#Cc3ccccc3)cc2)c([N+](=O)[O-])c1
